From PubChem
HPGD inh: HPGD (human) dehydrogenase inhibition; P15428; purified HPGD, NADH fluorescence kinetic, PGE2 substrate; Potency, µM, for the others: at the highest dose activity change, negative = inhibition, most hits filed as inhibitors; hit rate 4.3% among 150,000; active = well fitted inhibition curve with a large enough effect (not every such curve was filed as active); inconclusive = small, poorly fitted or top-dose-only effect, or another doubt; inactive = no such curve, though single readings can be large or run the other way;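 further: top concentration of the series not given in the record; plate controls included wells without enzyme; inactives centre near -10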
Target sequence (P15428 whole entry, looked up): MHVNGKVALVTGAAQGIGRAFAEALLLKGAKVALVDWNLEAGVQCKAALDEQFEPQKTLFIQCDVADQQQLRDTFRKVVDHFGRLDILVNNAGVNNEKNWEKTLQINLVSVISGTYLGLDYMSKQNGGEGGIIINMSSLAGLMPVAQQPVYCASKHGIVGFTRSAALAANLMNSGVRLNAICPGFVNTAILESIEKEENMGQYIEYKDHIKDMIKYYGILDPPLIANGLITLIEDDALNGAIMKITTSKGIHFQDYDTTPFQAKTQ
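NADH formation kinetics: reaction with 30 uM PGE2 and 1 mM NAD+ (final), 20 nM enzyme, Tris-HCl pH 8 with Tween 20, after 15 min compound preincubation at room temperature. Fluorescence change, last versus first of five reads.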
Starred values were filed as active, the others as inactive; ? = inconclusive; & = joins results of further samples. On the % scale 0 is the no-effect control and ±100 the full control effect; potency means the concentration at half of the fitted maximal effect. The list is partial, so the mix of outcomes need not match the whole.

SMILES,HPGD inh
CN1Cc2c(C(=O)OC(C)(C)C)ncn2-c2ccsc2C1=O,-6%
CC(/C=N/NC(=O)c1cccnc1)=C\c1ccco1,-6%
Cc1ccc(C(=O)OCC(=O)Nc2sccc2C(N)=O)cc1NC(=O)c1ccco1,-7%
COc1ccc(CN2C(=O)Cc3c2nc(N)c2c(N)nc(N4CCCCC4)c(C#N)c32)cc1,?
C=C(C)c1cccc(C(C)(C)NC(=O)N2CCN(CC)CC2)c1,-17%
CC[n+]1c(/C=C(\C)Nc2ccccc2)sc2ccccc21,-19%
CCOc1ccc(C(=O)NC(=S)Nc2ccc(N3CCOCC3)c(Cl)c2)cc1[N+](=O)[O-],?
CCOc1ccc(CN(C)CC(=O)NNC(=O)c2ccc(Cl)cc2)cc1OC,2%
COc1ccc(NC(=O)CN2CCN(CC(=O)Nc3ccc(OC)c(OC)c3)CC2)cc1,-11%
CCN(CC(=O)Nc1ccc([N+](=O)[O-])cc1OC)c1ccccc1,-4%
COc1cc(OC)cc(C(=O)N2CCN(C(=O)c3ccc(OC)c(OC)c3)CC2)c1,-10%
O=C(CN1CCN(CCC(=O)Nc2ccccc2F)CC1)Nc1ccc(F)cc1,3%

(further entries)
SMILES,HPGD inh
O=C(c1nc2nc(-c3ccc(Cl)cc3)cc(C(F)(F)F)n2n1)N1CCOCC1,?
CCCCCCOc1ccc(OC(=O)c2cccnc2)cc1,-17%
O=C(CCc1ccccc1)Nc1ccc(NC(=O)c2ccco2)cc1,-17%
N#CC(=C1CCCC1)c1nc(-c2cc3ccccc3oc2=O)cs1,?
O=C(O)COc1ccc(NC(=O)c2ccco2)cc1,-11%
COc1ccc(NC(=S)Nc2ccc(OCc3ccccc3)cc2)cc1OC,-15%
CCCC(=O)Nc1ccc(C(=O)NNC(=O)c2ccccc2Br)cc1,28µM*
Cc1ccccc1N1C(=O)CC(N(O)c2ccccc2)C1=O (stereo unspecified),-6%
Cc1[nH]c2ccccc2c1C(=O)C(=O)NCCC1=CCCCC1,-17%
COc1ccc(-c2noc(CSc3ccc(C)cc3)n2)cc1,-17%
CCN1CCCC1CNC(=O)CCc1nc(-c2ccc(C)cc2)no1 (stereo unspecified),-17%
Cc1ccc(S(=O)(=O)NCc2ccc(C(=O)N3CCCC3)cc2)cc1,20µM*

The list continues:
SMILES,HPGD inh
COC(=O)C(C)Oc1ccc2c(-c3cccc([N+](=O)[O-])c3)cc(=O)oc2c1 (stereo unspecified),?
CC(C)NCC(O)c1ccc(NS(C)(=O)=O)cc1 (stereo unspecified),-11%
COc1ccc(NC(=O)CSc2nc(O)cc(=O)n2-c2ccccc2OC)cc1,-7%
COc1ccc(Cl)cc1NC(=O)COC(=O)CCCN1C(=O)c2ccccc2C1=O,-27%
N[C@H](Cc1cnc[nH]1)C(=O)O,-12%
Cc1ccc(N2CSC3=C(C#N)C(c4cccs4)CC(=O)N3C2)cc1 (stereo unspecified),7.9µM*
CCc1ccc2[nH]c(=O)c(CN(CCO)C(=O)NCc3ccccc3)cc2c1,-12%
O=C(/C=C/c1ccccc1)Nc1ccc(N2CCCCC2)cc1,-8%
COc1ccc(OC)c(S(=O)(=O)N2Cc3ccccc3CC2C(=O)Nc2nccs2)c1 (stereo unspecified),-7%
Cc1ccc2oc(C(Cl)(Cl)Cl)cc(=O)c2c1,-8%
COc1cccc(C(C#N)N2CCOCC2)c1 (stereo unspecified),-8%
O=C(COC(=O)CCNS(=O)(=O)c1ccc(Cl)cc1)NCc1ccco1,-5%

New compounds follow.
SMILES,HPGD inh
Cc1nc(NC(=O)CSc2nnc(-c3ccccc3)c(-c3ccccc3)n2)c(Cl)cc1Cl,-15%
CN(C)CCCNC(=O)/C=C/c1ccc2c(c1)OCO2,?
CSc1n[nH]c(-c2sccc2OCc2ccc(C)cc2)n1,-4%
COc1ccc(NC(=O)C2CCC(CNc3c(N4CCCCC4)c(=O)c3=O)CC2)cc1OC (stereo unspecified),-18%
COc1ccc2c(C(=O)CN3CCN(CCO)CC3)c[nH]c2c1,-9%
c1ccc(CN2CCN(c3ncccn3)CC2)nc1,-12%
Cc1cc(=O)oc2cc(OC(C)C)ccc12,?
CCCCNC(=O)OC(C)CNC(=O)OC (stereo unspecified),-2%
Cc1ccc(OCCCn2c(=O)sc3ccccc32)cc1,?
Cc1nnc(SCC(=O)NC(C)(C)C)n1CCc1ccccc1,3%
CC(=O)C1C(c2ccc(F)cc2)C2C(C)=NN=C2CC1(C)O (stereo unspecified),-10%
COc1cnc(N(C)C)nc1Sc1cccc(Cl)c1,?

(next part)
SMILES,HPGD inh
O=c1cc(-c2ccccc2)oc2cccc(O)c12,-10%&-25%
CCCCNC(=O)C1CC(c2ccccc2[N+](=O)[O-])=NO1 (stereo unspecified),-21%
N#CC(=C=[N-])C1=C(C#N)C(c2ccccc2F)C([n+]2ccccc2)C(O)(C2CC2)N1 (stereo unspecified),-6%
CN(C)c1nc(OCCOC(=O)Nc2ccc(Cl)cc2Cl)nc(N(C)C)n1,-7%
COC(=O)C(Cc1cnc(Cl)s1)(C(=O)OC)c1ccc([N+](=O)[O-])cc1[N+](=O)[O-],-8%
COc1ccccc1N(CC(=O)N/N=C/c1ccc(SC)cc1)S(C)(=O)=O,?
O=C(CN1C(=O)NC2(CCCCC2)C1=O)Nc1ccc(S(=O)(=O)N2CCOCC2)cc1,3%
Nc1c(C(=O)NC2CCCC2)sc2nc(-c3cccs3)ccc12,-27%
Clc1cccc(Nc2ncnc3ccc(Br)cc23)c1,-25%
O=C(CN1C(=O)COc2ccc(S(=O)(=O)N3CCCC3)cc21)NC1CCCCCCC1,-4%
Cc1ccc(C(C)C)c(OCC(=O)OCc2c(C)noc2C)c1,-10%
O=C(O)c1cccc(NS(=O)(=O)c2cccc3nsnc23)c1,-4%

Additional records follow.
SMILES,HPGD inh
COCCCN(Cc1ccccn1)S(=O)(=O)Cc1ccccc1,-10%
COc1ccc(-c2nn3c(-c4ccccc4)nnc3s2)cc1,?
c1ccc(-n2ncc3c(NCc4cccnc4)ncnc32)cc1,?
CC(=O)Nc1cc(C(=O)OCC(=O)c2ccc(Cl)cc2Cl)ccc1C,-12%
O=C(NCCc1ccccc1)C(=O)c1c(-c2ccccc2)[nH]c2ccccc12,-12%
Cc1ccnc(NS(=O)(=O)c2ccc(N3C(=O)c4c(Cl)c(Cl)c(Cl)c(Cl)c4C3=O)cc2)n1,-9%
CCN(CC)c1ccc(NC(=S)NC(=O)Cc2ccccc2)cc1,-10%
O=C(CC1CCCCC1)NCCOc1ccccc1,-26%
CCOC(=O)c1c(C)cc(=O)oc1C,2%
CNc1ccccc(C(=O)/C=C/c2ccccc2OC)c1=O,13µM*
O=C(NC1(C(=O)NC2CCCCC2)CCCCC1)c1ccc2c(c1)OCO2,2%
Cc1nn(-c2ccccc2)c(Cl)c1/C=N/NC(=O)c1cccnc1,-5%

The listing continues:
SMILES,HPGD inh
COc1cccc([C@@H]2Oc3ccc(Br)cc3C[C@H]2OC(=O)Nc2cc(OC)c(OC)c(OC)c2)c1,-11%
O=c1c(-c2cccc(F)c2)nc2cncnc2n1C1CC1,-10%
Cc1cccc(OCC(=O)NNC(=O)c2cc3ccccc3oc2=O)c1,-29%
CCCCN(CCCNC(=O)c1c(C)cc(=O)oc1C)c1ccccc1,-12%
Cc1nn(-c2cccc(Cl)c2)c2c1C(c1cccnc1)C(C#N)=C(N)O2 (stereo unspecified),-20%
CCN(CC)C(=O)c1ccc2c(c1)nnn2C,16µM*
Cc1c(CN2CCN(c3cccc(C(F)(F)F)c3)CC2)c(=O)n(-c2ccccc2)n1C,-6%
CCCCCCCCCCCCCCCC[n+]1cccc(C(=O)N(CC)CC)c1,1%
Cc1ccc(-n2ncc3c(N4CCC(C(N)=O)CC4)ncnc32)c(C)c1,-3%
Cc1ccc(C)n1-c1ccc(-c2nnc3n2CCCCC3)s1,3.2µM*
COC(=O)c1cc(C(=O)CSc2nc(C)cc(C)n2)ccc1O,18µM*
N#C/C(=C\c1c(N2CCCCC2)nc2ccccn2c1=O)C(=O)NC1CCS(=O)(=O)C1 (stereo unspecified),?

Further entries.
SMILES,HPGD inh
Cc1cccn2cc(-c3ccccc3)nc12,?
Cc1ccc(N2C(=O)C3C4CC(=O)C(c5ccccc54)C3C2=O)cc1C (stereo unspecified),-10%
COC(=O)CNC(=O)C1CCCN1C(=O)OC(C)(C)C (stereo unspecified),-8%
OC(Cn1cccn1)c1ccccc1 (stereo unspecified),-9%
Cc1cc2c(c(=O)o1)C(C1C=CCCC1)C(C#N)=C(N)O2 (stereo unspecified),28µM*
CCCn1c(C)nc2c(NC3CCN(Cc4ccccc4)C3)nc(C)nc21 (stereo unspecified),-9%
CSCC[C@H](NC(=O)C(C)(C)Oc1ccc(Cl)cc1)c1nc2ccccc2[nH]1,-1%
O=C(Nc1ccc(Cl)cc1)c1ccncc1,3%
COC(=O)CNS(=O)(=O)c1ccc(C)cc1,-9%
COC(=O)c1ccc(CSc2nnc3n(Cc4ccccc4OC)c(=O)c4ccccc4n23)o1,-18%
N#CC(C(=O)NC1CCCCC1)=C1CCCCC1,-6%
CCOC(=O)c1c(C)c(C(=O)NCc2ccco2)c(C)n1Cc1ccccc1,-27%

Further entries
SMILES,HPGD inh
O=C(/C=C/c1ccccc1)c1cccs1,-26%
COc1ccc(C2CC(c3ccccc3)=NN2C(=O)COC(=O)C2CC2)cc1 (stereo unspecified),-20%
CCOC(=O)COc1ccc(Br)cc1C1NC(=O)NC(C)=C1C(=O)NCc1ccccc1 (stereo unspecified),?
C=CCN1c2ccccc2[C@]23C[C@@H](C(=O)OC)N(C(=O)c4ccc(Br)cc4)C2=NC(C(=O)OC)=C(C(=O)OC)[C@H]13,0%
Nc1nc(N)nc(-c2ccccc2O)n1,-13%
OC(CN1CCNCC1)Cn1c2ccc(Br)cc2c2cc(Br)ccc21 (stereo unspecified),-9%
CC(C)OC(=O)CN1CCN(S(=O)(=O)c2cc(Cl)ccc2Cl)CC1,-13%
O=C1CCc2ccc(OCCCCN3CCN(c4cccc(Cl)c4Cl)CC3)cc2N1,-8%
CCn1c(O)c(N=NC(=O)CNC(=O)/C=C/c2ccco2)c2ccccc21,-23%
Cc1cc(NC(=O)COc2nnc(-c3ccccc3)c3ccccc23)no1,0%
O=C(O)c1ccc(N(c2ccccc2)c2ccccc2)cc1,?
Cc1nn(Cc2ccccc2)c(C)c1C(=O)NCCN1C(=O)S/C(=C\c2ccc(F)cc2)C1=O,-20%

Other compounds follow:
SMILES,HPGD inh
CC(C)Oc1ccc(OCCCN2CCCCCC2)cc1,-4%
CCOC(=O)N1CCN(C(=O)CN(c2cccc(C(F)(F)F)c2)S(=O)(=O)c2ccccc2)CC1,?
O=C(C1CC1)N1CCN(C(c2ccccc2)c2ccccc2)CC1,-6%
COc1cc2c(cc1OC)C(C)N(C(C)=O)CC2 (stereo unspecified),-11%
C[C@@]12CC(=O)NC1N(C(=O)c1ccccc1)C(c1ccccc1OC(=O)c1ccccc1)C2 (stereo partly specified),3%
CC(C)Nc1nc2n(c(=O)n1)CCN2C(C)C,-18%
CC1(C)CC(=O)C2=C(C1)OC(N)=C(C#N)C2c1cn(-c2ccccc2)nc1-c1ccc(F)cc1 (stereo unspecified),-11%
CC(=O)N1CCCc2cc(S(=O)(=O)N3CCN(C4CCCCC4)CC3)ccc21,-14%
Cn1ccnc1Sc1ccc(/C=N/NC(=O)c2ccccc2[N+](=O)[O-])cc1[N+](=O)[O-],-12%
CC(=O)OCC1=C(C(=O)O)N2C(=O)C(NC(=O)CSc3ccncc3)[C@@H]2SC1 (stereo partly specified),-7%
Cc1nn(Cc2ccccc2Cl)c(C)c1C(=O)NC1=NCCS1,-6%
CCn1c(SCc2ccc(Cl)cc2)nnc1-c1ccccc1,-5%

Continued:
SMILES,HPGD inh
CCOP(=O)(c1ccccc1)c1nc(-c2ccccc2Cl)oc1N1CCCCC1 (stereo unspecified),?
Fc1ccc(-c2csc(/C=C/c3ccc4c(c3)OCO4)n2)cc1,?
COc1ccc2c(c1OC)C(=O)N(c1ccc(C)c(C)c1)C2=O,-18%
CCc1cc2c(=O)[nH]c(COC)nc2s1,1%
CCC(=O)Nc1cccc2c1C(=O)N(C)C2=O,?
Cc1ccc(S(=O)(=O)NC(=O)NN2C[C@H]3CCC[C@@H]3C2)cc1,0%
Cc1nc(=O)c(-c2ccccc2)c(C)n1CCCCCC(=O)O,-10%
CCOC(=O)C(NC(=O)NC1CCCCC1)(c1ccccc1)C(F)(F)F (stereo unspecified),-8%
CCc1nnc(NC(=O)CSc2nnc3c4ccccc4n(C)c3n2)s1,-22%

Shown with each value named: 2 of the compounds above
O=C(COC(=O)CCNS(=O)(=O)c1ccc(Cl)cc1)NCc1ccco1
  HPGD inh: -5%

CNc1ccccc(C(=O)/C=C/c2ccccc2OC)c1=O
  HPGD inh: 13µM*

Six compounds already listed, ordered by SMILES length, high to low:
SMILES,HPGD inh
Cc1ccc(S(=O)(=O)NC(=O)NN2C[C@H]3CCC[C@@H]3C2)cc1,0%
CCOC(=O)C(NC(=O)NC1CCCCC1)(c1ccccc1)C(F)(F)F (stereo unspecified),-8%
CCc1nnc(NC(=O)CSc2nnc3c4ccccc4n(C)c3n2)s1,-22%
Cc1nc(=O)c(-c2ccccc2)c(C)n1CCCCCC(=O)O,-10%
CCC(=O)Nc1cccc2c1C(=O)N(C)C2=O,?
CCc1cc2c(=O)[nH]c(COC)nc2s1,1%
